# Rango release inh = qHTS Assay for Inhibitors of RanGTP induced Rango (Ran-regulated importin-beta cargo) - Importin beta complex dissociation | Biochemical FRET Rango-importin beta, RanGTP-induced dissociation | Potency, µM (titrated, usually from 46.1 µM), inactives show at the top dose activity change, negative = inhibition | hit rate 0.071% among 340,000 | AID 540253, 2011; active means falling FRET ratio curve, often poorly fitted, with flat reads before Ran was added; inconclusive means other falling curves, or compound fluorescence or quenching; inactive means flat or rising ratio curve;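 note: potency is the fitted concentration of half-maximal effect; % of control where 0% means no effect; nearly all actives have a fitted effect of over 45% in size; -100% = wells without RanGTP and RCC1; the record marks most hits as doubtful in a second field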
#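 Quantitative HTS using a FRET biosensor: 0.1 uM Rango, 0.25 uM importin beta, 0.6 uM Ran, 2 mM GTP, 0.2 uM RCC1 final, PBS with DTT, Tween-20 and BSA. Post-read taken 45 min after Ran addition.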
# Rango complex inh = qHTS Assay for Inhibitors of Rango (Ran-regulated importin-beta cargo) - Importin beta complex formation. AID 540263, 2011. Potency, µM (top dose mostly 92.2 µM), without a hit: at the highest dose inhibition of complex formation. hit rate 0.031% among 340,000. Rango CFP/YFP FRET sensor + importin beta, 45 min; active = rising FRET ratio curve, often small or poorly fitted; inconclusive = mostly compound fluorescence or quenching in the first reads; inactive = flat curves in all reads;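 note: potency is the fitted concentration of half-maximal effect; 0% = DMSO wells and 100% = buffer wells lacking importin beta; nearly all actives have a fitted effect of over 15% in size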
# Target sequence (Q14974 whole entry, looked up): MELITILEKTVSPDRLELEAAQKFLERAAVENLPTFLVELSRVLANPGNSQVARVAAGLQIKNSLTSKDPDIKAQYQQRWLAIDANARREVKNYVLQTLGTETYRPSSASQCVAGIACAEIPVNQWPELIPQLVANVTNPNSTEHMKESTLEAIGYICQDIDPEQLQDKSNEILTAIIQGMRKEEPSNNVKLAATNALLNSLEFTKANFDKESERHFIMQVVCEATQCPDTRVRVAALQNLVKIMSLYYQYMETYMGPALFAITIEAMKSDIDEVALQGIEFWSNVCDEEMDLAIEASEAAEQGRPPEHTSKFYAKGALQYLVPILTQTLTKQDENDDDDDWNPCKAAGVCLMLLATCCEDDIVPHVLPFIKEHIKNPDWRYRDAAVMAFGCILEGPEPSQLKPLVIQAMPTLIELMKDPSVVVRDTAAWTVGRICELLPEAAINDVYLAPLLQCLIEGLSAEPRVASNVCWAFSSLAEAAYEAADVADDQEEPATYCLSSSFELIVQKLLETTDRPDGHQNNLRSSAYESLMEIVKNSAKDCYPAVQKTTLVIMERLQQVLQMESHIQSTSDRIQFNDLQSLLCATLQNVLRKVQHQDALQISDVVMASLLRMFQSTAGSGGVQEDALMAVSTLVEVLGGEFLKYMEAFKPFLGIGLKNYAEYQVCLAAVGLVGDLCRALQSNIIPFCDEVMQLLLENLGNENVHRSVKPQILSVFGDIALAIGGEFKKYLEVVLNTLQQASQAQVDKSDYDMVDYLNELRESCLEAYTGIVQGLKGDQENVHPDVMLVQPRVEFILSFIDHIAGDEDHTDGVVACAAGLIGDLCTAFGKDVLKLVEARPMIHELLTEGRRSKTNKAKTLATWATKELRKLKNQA
#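 Inhibition scored from the CFP 486 nm/YFP 530 nm FRET ratio 45 min after adding 0.125 microM importin beta to 50 nM Rango biosensor preincubated 5 min with compound (room temperature, PBS with DTT, Tween-20, BSA). No-importin wells as positive control.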
# GLA inh pH 4.5 = qHTS Assay for Inhibitors of Human alpha-Galactosidase at pH 4.5 | activity change, negative = inhibition, % at 105 µM | 230,000 tested, under 10 active | Alpha-galactosidase A (Homo sapiens), P06280 | purified enzyme, 4-MU-alpha-Gal fluorescence, pH 4.5; inconclusive = small, poorly fitted or top-dose-only inhibition, or a rising curve; inactive = flat fitted curve, though single readings scatter; no compound was filed as active;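 note: 0% = full activity with enzyme and -100% = basal without enzyme; dose as in the result columns while the protocol names 77 µM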
# miR-21 FLuc = qHTS Assay for Modulators of miRNAs and/orActivators of miR-21 | HeLa miR-21 FLuc reporter, luciferase, 48 h | Potency, µM (doses to about 38.3 µM), inactives show at the highest dose reporter change, positive = more light | 340,000 tested, under 10 active | AID 2288, 2010; active = well fitted rising curve with a large enough effect; inconclusive = small, poorly fitted or top-dose-only effect; inactive = no such curve, though single readings can be large or run the other way;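 note: % of control where 0% means no effect; miR-21 action dims this reporter so a rising signal means less miR-21 action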
#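 HeLa cells endogenously expressing miR-21, stably carrying CMV-driven firefly luciferase with a downstream miR-21 binding site, 2000 cells/well. Titrations up to approximately 40 uM, 48 hours; luciferase luminescence read.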
# * = called active by the depositor; ? = inconclusive; . = not tested or not shown; & = joins results of further samples. This is a subset, so the mix of outcomes need not match the whole.
# Every second line gives: Rango release inh | Rango complex inh | GLA inh pH 4.5 | miR-21 FLuc
Cc1ccsc1C1NC(=O)c2ccccc2N1 (centres undefined)
→ -5% | -0.7% | . | -32%
Cc1ccc(CNc2ccc3c(c2)ncn3C(C)(C)C)cc1
→ 11% | 2.8% | -4 | -60%
O=S1(=O)OCCC(c2ccccc2)N1Cc1ccccc1 (centres undefined)
→ -18% | -1.6% | . | 4%
O=C(O)C1CCN(C(=O)c2ccccc2C(=O)N2CCC(C(=O)O)CC2)CC1
→ 1% | -3.0% | -7 | -3%
C#CCOCCOCCOCCNc1nc(N2CCN(C(=O)[C@H]([C@@H](C)O)n3cc(CCCCN)nn3)CC2)nc(N2CCN(C(=O)[C@H](CCCCN)n3cc(CCCC)nn3)CC2)n1
→ -18% | -2.6% | . | .
CC(=O)C1=C(O)C(=O)N(CCN2CCOCC2)C1c1ccc(N(C)C)cc1 (centres undefined)
→ -3% | -1.1% | . | .
CN(C)C(=O)c1ccc(NC(=O)c2cc(-c3ccco3)nc3ccccc23)cc1
→ 2% | ? | . | 0%
CC(=O)NC12CC3CC(C1)CC(C(=O)OCC(=O)NC(=O)c1cccn1C)(C3)C2
→ -3% | -0.5% | 2 | -5%
COc1ccc(OC)c(CN2CCN(S(=O)(=O)c3ccccc3)CC2)c1
→ 1% | -1.2% | . | 13%
CCOC(=O)c1ccc(NC(=O)CN2C(=O)CSCC2=O)cc1
→ -20% | -2.8% | -5 | 0%
CCOC(=O)c1c(S(=O)(=O)NCC(=O)Nc2cc(C)ccn2)c(C)n(C)c1C
→ 15% | 3.0% | . | -1%
S=c1[nH]cc(-c2ccc(Cl)cc2)n1-c1ccccc1
→ 4% | 3.1% | 2 | 6%
Cc1c(C(C)(C)C)s/c(=N/S(=O)(=O)c2ccccc2)n1C
→ 5% | 0.3% | . | -14%
O=C(NCc1ccc2c(c1)OCO2)c1c(O)nc2sccn2c1=O
→ 0% | 0.0% | . | .
c1coc(C2OCC3(CO2)COC(c2ccco2)OC3)c1 (centres undefined)
→ 6% | 2.2% | 2 | -8%
COCc1[nH]nc2c1C1(C(=O)N(C)c3ccccc31)C(C#N)=C(N)O2 (centres undefined)
→ 3% | -0.5% | 4 | 2%
Cc1ccc(C(=O)CSc2n[nH]c(-c3ccco3)n2)cc1C
→ 0% | 2.3% | 3 | -10%
COc1cc(/C=C2\C(=N)N3N=C(S(C)(=O)=O)SC3=NC2=O)ccc1OCCOc1ccccc1C
→ -6% | 0.8% | . | -19%
COc1ccc(/C=N/n2c(SC)nnc2-c2ccccc2)cc1C
→ 2% | -0.1% | 10 | 9%
CCCCN(C)C(=O)C1CCCN(S(=O)(=O)c2ccc3c(c2)oc(=O)n3C)C1 (centres undefined)
→ -6% | 4.0% | . | 0%
O=C(c1ccc2nc(N3CCOCC3)sc2c1)N1CCCC1
→ -1% | 0.4% | -2 | -17%
Cc1ccc(-n2ncc3c2CCCC3NC(=O)CCCN2CCCCC2=O)cc1C (centres undefined)
→ 0% | 0.0% | . | -3%
CNC(=S)N1CCc2ccccc2C1
→ 13% | 2.2% | -5 | -1%
Cc1cccc(OCC(=O)OC(C)CN2CCCCC2)c1 (centres undefined)
→ -10% | -2.8% | . | -1%
O=S(=O)(Nc1ccncc1)c1cc(Cl)ccc1Cl
→ 18% | 3.5% | . | 0%
C=CCn1c(SCc2c(C)noc2C)nc2sc3c(c2c1=O)CCC(C)C3 (centres undefined)
→ 1% | -0.8% | 0 | -4%
CC(C)(C)OC(=O)N1CCC(NC(=O)c2nc[nH]c2C(=O)NCC(=O)OCc2ccccc2)CC1
→ 17% | 5.6% | . | 15%
O=S(=O)(NN=C1CCCCCC1)c1ccc(Cl)cc1
→ -3% | -3.1% | . | -5%
CCCC(=O)Nc1cc(C)c(NC(=O)c2ccco2)cn1
→ 0% | -2.6% | . | -6%
Cc1cccc(NS(=O)(=O)c2ccc(C)c(C(=O)N(C)C3CCN(C)CC3)c2)c1
→ 9% | 1.3% | . | .
Cc1ccc(-c2noc(CN3CCC(C(N)=O)CC3)n2)cc1
→ -9% | -3.3% | 9 | -35%
O=C(COc1ccc(Cl)c2cccnc12)N1CCOCC1
→ -4% | 1.6% | . | .
COc1cccc(NC(=O)CSc2cccc[n+]2[O-])c1
→ 12% | 6.9% | . | .
Cc1nnc2ccc(-c3ccc(NS(C)(=O)=O)cc3)nn12
→ 21% | -0.2% | -2 | -2%
Cc1ccc(S(=O)(=O)N2CCOCC2)cc1C(=O)Nc1ccc(C(N)=O)cc1
→ -16% | 9.2% | -15 | 1%
O=C(c1cc(COc2ccc(F)cc2Cl)on1)N(Cc1ccncc1)CC1CCCO1 (centres undefined)
→ -9% | -0.6% | -4 | -11%
CCCCn1nnnc1NCc1cccc(OC)c1OC
→ -2% | 0.4% | 1 | -3%
COC(=O)C1(C)NC(c2ccc(C)cc2)C2C(=O)N(c3ccc(F)cc3)C(=O)C21 (centres undefined)
→ -9% | -0.3% | . | 1%
Cc1cc(NC(=O)CSc2nnc(CNC(=O)c3c(F)cccc3F)o2)no1
→ -1% | 2.5% | . | 0%
CCN(CC)c1ccc(NC(=O)CN2CCN(c3ccccc3F)CC2)cc1
→ 2% | 0.4% | -5 | 8%&6%
CCOc1ccc(S(=O)(=O)N2CCC(C(=O)NCCc3ccc(S(N)(=O)=O)cc3)CC2)cc1
→ -12% | 2.7% | . | 2%
CCCCN(CC)S(=O)(=O)c1c(C)[nH]c(=O)[nH]c1=O
→ 7% | 0.2% | 4 | 5%
N=C1C(c2nc3ccccc3s2)=C(O)CN1NC(=O)c1ccc([N+](=O)[O-])cc1
→ -5% | -3.5% | -3 | -7%
C[C@H](N)c1nnc(SCC(N)=O)o1
→ 13% | -1.7% | 2 | 0%
COc1ccc(-n2c(C)nn(CC3CC3)c2=O)cc1
→ 2% | 2.2% | 4 | 0%
Cc1[nH]c(=O)[nH]c(=O)c1S(=O)(=O)N1CCCC(C(=O)NCc2ccco2)C1 (centres undefined)
→ 7% | -2.1% | -10 | 1%
CN(C(=O)CC(=O)Nc1ccc(Cl)c(Cl)c1)c1ccccc1
→ 1% | ? | 2 | -7%
O=C(CN1C(=O)NC2(CCCCC2)C1=O)N1CCN(C(=O)c2cccs2)CC1
→ -6% | 0.8% | . | .
CCn1ncc(C2=NOC(C(=O)NCc3ccc(OC)cc3)C2)c1C (centres undefined)
→ -7% | ? | -4 | 18%
COc1ccc(NC(=O)CSc2nnc(-c3ccccc3)n2N)cc1
→ 3% | 3.2% | 0 | -4%

# (cont.)
# Every second line gives: Rango release inh | Rango complex inh | GLA inh pH 4.5 | miR-21 FLuc
O=C(Nc1ccc(N2CCOCC2)cc1)Nc1ccc2nsnc2c1
→ -12% | 4.3% | 2 | -7%
O=C(COC(=O)c1ccccc1)NC12CC3CC(CC(C3)C1)C2
→ -11% | 3.0% | . | .
Cn1c(=O)c([N+](=O)[O-])c(NCCc2ccccc2)c2ccccc21
→ 1% | 1.8% | 6 | 0%
CCNC(=O)C1CCCN(c2nc(C)cc(C)n2)C1 (centres undefined)
→ -15% | -0.5% | -4 | -2%
CC(=O)c1ccc(S(=O)(=O)Nc2ccc(-c3cn4c(n3)SCC4)cc2)cc1
→ 1% | -0.1% | 1 | -1%
CC(=O)c1c(-c2ccccc2)[nH]c2ccccc12
→ -14% | 3.1% | . | 12%
COc1ccc(NC(=O)CN(C)S(=O)(=O)c2ccc(Cl)cc2)c([N+](=O)[O-])c1
→ 7% | -0.9% | 5 | -1%
COc1ccc(N2CCN(Cc3cc4c(cc3Br)OCCO4)CC2)cc1
→ -2% | -2.6% | . | -4%
O=C(NCCc1ccc(Cl)cc1)C1CCCO1 (centres undefined)
→ -4% | 3.6% | . | -11%
CN(CC(=O)Nc1ccc(N2CCOCC2)cc1)CC(=O)Nc1ccc(C(F)(F)F)cc1
→ 1% | 9.7% | 3 | -2%
CC(C)NS(=O)(=O)c1ccc(OCC(=O)NCCC2=CCCCC2)cc1
→ 14% | -0.5% | 5 | -4%
C/C(CC(=O)Nc1cc(C)ccn1)=N\NC(=O)c1ccc(C)cc1
→ -7% | ? | 4 | -46%
CCOC(=O)Cc1nnc(NC(=O)CSc2ccc(C)cc2)s1
→ -10% | ? | -1 | -1%
CCOc1ccccc1/C=N/Nc1ccc(Cl)nn1
→ 0% | -0.9% | . | -10%
CN(CC(=O)Nc1ccccc1C(F)(F)F)C(=O)CSCc1ccccc1
→ 11% | 0.0% | . | .
CCc1nn(C(C)C(=O)N2CCc3ccccc3C2)c(=O)c2cc3occc3n12 (centres undefined)
→ -17% | -2.2% | -13 | -10%
CC(=O)O[C@]1(C(C)=O)CC[C@H]2[C@@H]3C[C@H](C)C4=CC(=O)CC[C@]4(C)[C@H]3CC[C@@]21C
→ 8%&-11% | 1.2%&-5.3% | . | 15%
O=C(NCCN1CCOCC1)c1csc2c1CCCC2
→ -3% | 1.2% | 2 | -9%
Cn1cccc1C(=O)N1CCN(c2cccc(C(F)(F)F)c2)CC1
→ -7% | -2.3% | -1 | 0%
COc1ccc(NS(=O)(=O)c2ccc3c(c2)CCO3)cc1
→ 27% | 0.6% | 7 | 8%
COc1ccccc1CN(C)C(=O)CN1CCN(CC(=O)Nc2ccccc2Cl)CC1
→ 2% | -1.0% | . | .
CCNc1ccc(C(=O)Nc2ccc3nc(C)sc3c2)cc1[N+](=O)[O-]
→ ? | 4.6% | -5 | -32%
COc1ccc(-c2c(C)c3ccc(O)cc3oc2=O)cc1OC
→ ? | 0.2% | . | -24%
O=C(NC1CCCN(Cc2ccc(Cl)cc2)C1)c1ccoc1 (centres undefined)
→ -14% | 0.2% | . | 4%
CCn1c(SCC(=O)Nc2c(C)n(C)n(-c3ccccc3)c2=O)nnc1-c1cccc(C)c1
→ -1% | -0.8% | 2 | -1%
Nc1nc(SCC(=O)N2CCc3ccccc32)[nH]c(=O)c1-c1ccccc1
→ -1% | -1.3% | -11 | -2%
Cc1cccc(Cn2c(=O)n(CCCC(=O)NCc3ccco3)c(=O)c3ccccc32)c1
→ -3% | 2.0% | -1 | 13%
CC(=O)Nc1ccc(-c2csc(Nc3ccccn3)n2)cc1
→ -11% | -4.0% | -1 | -6%
O=C(COC(=O)Cc1ccc(F)cc1)Nc1ccc2[nH]c(=O)[nH]c2c1
→ 10% | 1.0% | . | .
CCC(C(=O)Nc1ccccc1OC)n1c(C(=O)OC)cc2ccsc21 (centres undefined)
→ 13% | -2.6% | 6 | -5%
Cc1ccc(C(=O)N2CCN(c3ccccn3)CC2)cc1C
→ -2% | 0.9% | . | -8%
O=C(CCNC(=O)c1ccc(Cl)cc1)NC1CCCc2ccccc21 (centres undefined)
→ -6% | 3.5% | . | .
C[C@@H]1C[C@H]2[C@@H]3C[C@H](F)C4=CC(=O)C=C[C@]4(C)[C@@]3(F)[C@@H](O)C[C@]2(C)[C@@]1(O)C(=O)CO
→ 29% | 0.6% | . | -27%
CCCc1nc2ccccc2c(C(=O)N(CC)CC(=O)NCc2cccs2)c1CC
→ ? | -1.2% | . | .
CCCCc1n[nH]c(=S)n1Cc1ccc(C)cc1
→ -3% | -0.4% | 0 | -1%
CCC(c1nnc(SCC(=O)Nc2cccc(S(N)(=O)=O)c2)n1-c1ccc(OC)cc1)N(C)C (centres undefined)
→ 2% | -1.5% | . | -2%
Cc1ccc(CN(Cc2ccco2)C(=O)c2ccco2)cc1
→ -9% | 0.4% | . | -6%
Cc1cccc(OCC(=O)NCCN2CCOCC2)c1
→ 13% | 1.8% | 4 | -6%
COc1ccc(C2C(C#N)=C(N)Oc3cc(O)ccc32)cc1OC (centres undefined)
→ ? | ? | -3 | -1%
Cc1cc(C)n(CCC(=O)Nc2cccc(F)c2)n1
→ -4% | -0.3% | 5 | 1%
O=C(Nc1cccnc1Cl)c1cccc(F)c1
→ . | . | 4 | -13%
Cc1ccc(C(=O)NCC(=O)OCC(=O)NC2CCCCCCC2)cc1
→ -19% | -0.8% | . | -2%

# Screens: PubChem BioAssay, National Center for Advancing Translational Sciences (NCATS)
